Source: PubChem BioAssay
KCNQ2 inh: KCNQ2 potassium channel inhibitors, primary screen, cell-based, CHO-K1, FluxOR thallium flux, B-score (AID 2156). B-score at 10 µM. 20 min; hits give low values; only compounds with negative scores are shown here; some inactives read as strong as hits. actives 1.1% (n = 310,000). O88943;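 active = fluorescence ratio B-score at most minus 3 library SDs, with starting brightness B-score within 2 library SDs, cut at about -5.5 in these data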
Target sequence (O88943 whole entry, looked up): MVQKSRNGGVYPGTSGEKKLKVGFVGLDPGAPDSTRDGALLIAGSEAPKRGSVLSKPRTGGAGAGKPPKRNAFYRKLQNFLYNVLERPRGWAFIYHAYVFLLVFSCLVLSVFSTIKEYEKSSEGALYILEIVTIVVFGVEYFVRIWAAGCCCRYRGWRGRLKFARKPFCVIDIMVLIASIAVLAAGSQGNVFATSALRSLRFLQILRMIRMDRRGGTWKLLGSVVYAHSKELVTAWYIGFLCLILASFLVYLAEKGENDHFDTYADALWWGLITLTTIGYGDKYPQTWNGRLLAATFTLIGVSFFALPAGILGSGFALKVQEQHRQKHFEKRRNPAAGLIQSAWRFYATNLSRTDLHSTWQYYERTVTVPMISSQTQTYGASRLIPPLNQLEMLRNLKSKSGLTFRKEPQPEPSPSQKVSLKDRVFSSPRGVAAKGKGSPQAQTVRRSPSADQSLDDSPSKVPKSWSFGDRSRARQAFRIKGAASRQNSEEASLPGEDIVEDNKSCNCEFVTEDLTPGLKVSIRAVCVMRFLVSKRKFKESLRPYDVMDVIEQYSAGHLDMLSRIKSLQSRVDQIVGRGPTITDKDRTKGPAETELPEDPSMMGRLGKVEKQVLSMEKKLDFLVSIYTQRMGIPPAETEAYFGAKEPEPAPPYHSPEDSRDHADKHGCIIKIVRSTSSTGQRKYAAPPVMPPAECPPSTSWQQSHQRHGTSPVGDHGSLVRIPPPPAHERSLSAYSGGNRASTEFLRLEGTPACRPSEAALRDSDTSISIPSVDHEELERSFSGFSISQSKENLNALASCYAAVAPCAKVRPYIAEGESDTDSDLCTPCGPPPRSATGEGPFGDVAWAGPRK
KCNQ2 inh baseline: also measured in KCNQ2 inh; calls as there; B-score; measured here: initial fluorescence intensity artifact check;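 brightness before thallium and not channel activity; 0 = typical well and far values either way flag optical interference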
Numbers without * were called inactive; i = inactive. These rows are one share of the data; rates above refer to the full screens.

structure,KCNQ2 inh,KCNQ2 inh baseline
O=C(NC1CCCCC1)c1noc2c1CCCCC2,i,0.13
CCC(=O)c1ccc(OCC(=O)OCC(=O)c2cc(C)n(C3CC3)c2C)cc1,i,0.01
Cc1cccc(CCN(CC(=O)NC(C)(C)C)C(=O)c2csnn2)c1,i,0.72
O=C(Nc1cc(C(F)(F)F)ccc1N1CCOCC1)c1ccc[n+]([O-])c1,i,1.9
FC(F)(F)c1ccccc1NC(=S)N1CCc2ccccc2C1,i,0.53
O=C(Oc1ccc(/C=N/NC(=O)c2ccccn2)cc1)c1ccc(Br)cc1,i,0.18
O=C(NCc1ccc2c(c1)OCO2)C1CC(c2cccc(Br)c2)=NO1 (configuration not stated),i,-0.35
CN1/C(=C\C(=S)NC(=O)c2cccc(Br)c2)C(C)(C)c2ccccc21,-7.8*,-0.36*
COc1ccccc1NS(=O)(=O)c1cccc(C(=O)N/N=C/c2c(C)nn(-c3ccccc3)c2N2CCCC2)c1,i,0.69
O=C(Nc1ccc(Cl)cc1[N+](=O)[O-])c1ccc2c(c1)OCCO2,i,1.4
N#Cc1ccc(OCC(=O)NCC(c2cccs2)N2CCOCC2)cc1 (configuration not stated),i,0.64
COC(=O)[C@H](C)NC(=O)NCc1ccc(S(N)(=O)=O)cc1,i,-1
CCC(=O)Nc1ccccc1-c1nnn(CC(=O)N2c3ccccc3CC2C)n1 (configuration not stated),i,0.81
Cc1nc2ccc(S(=O)(=O)NCC(=O)N3CCOCC3)cc2s1,i,1
COc1ccccc1OCC(=O)Nc1ccccc1C(=O)N1CCCCC1,i,-1.2
CCOc1ccc(C(=O)NCCCN(CC)CC)cc1,i,1.8
COc1ccccc1NC(=S)N1CCN(c2ccc(F)cc2)CC1,i,0.05
COc1cccc2cc(C(=O)CS(=O)(=O)c3ccc(C(C)(C)C)cc3)c(=O)oc12,i,0.54
CC(C(=O)N1CCCC1)N(c1ccccc1)S(C)(=O)=O (configuration not stated),i,0.61
CCCCc1nc2cc(C(=O)N3CCC(OCCOC)CC3)ccc2o1,i,-1.6
CCOc1ccc2[nH]c(=O)c(C(c3nnnn3CC3CCCO3)N3CCc4ccccc4C3)cc2c1 (configuration not stated),i,0.29
CCOC(=O)c1ccc(NC(=O)C23CCC(C)(C(=O)O2)C3(C)C)cc1 (configuration not stated),i,1.9
O=C(c1ccc(-c2ccccc2)c(F)c1)C1CCCN(CCCn2cccn2)C1 (configuration not stated),i,2.7
C=CCSc1nc2c(c(C3CC=CCC3)c1C#N)CCC2 (configuration not stated),-12*,-1.6*
c1ccc(-c2nnc3sc(CN4CCc5ccccc54)cn23)cc1,i,1

The closing 7 records of the part before are carried over, then new ones follow:
structure,KCNQ2 inh,KCNQ2 inh baseline
CC(C(=O)N1CCCC1)N(c1ccccc1)S(C)(=O)=O (configuration not stated),i,0.61
CCCCc1nc2cc(C(=O)N3CCC(OCCOC)CC3)ccc2o1,i,-1.6
CCOc1ccc2[nH]c(=O)c(C(c3nnnn3CC3CCCO3)N3CCc4ccccc4C3)cc2c1 (configuration not stated),i,0.29
CCOC(=O)c1ccc(NC(=O)C23CCC(C)(C(=O)O2)C3(C)C)cc1 (configuration not stated),i,1.9
O=C(c1ccc(-c2ccccc2)c(F)c1)C1CCCN(CCCn2cccn2)C1 (configuration not stated),i,2.7
C=CCSc1nc2c(c(C3CC=CCC3)c1C#N)CCC2 (configuration not stated),-12*,-1.6*
c1ccc(-c2nnc3sc(CN4CCc5ccccc54)cn23)cc1,i,1
O=C(COc1cccc(C(F)(F)F)c1)NCCCN1CCCC1=O,i,-1.5
COc1ccc(C(=O)Nc2ccccc2)cc1NC(=O)c1cccs1,i,0.05
Cc1cc(Br)cc(C)c1OCC(=O)NNC(=O)c1cccs1,i,-0.14
O=C(NCCOc1ccccc1F)c1cc([N+](=O)[O-])ccc1N1CCOCC1,i,0.81
Cc1c(Cl)cccc1-c1ccc(/C=N/n2cnnc2)o1,i,0.05
CCC1Oc2ccccc2N(CC(=O)NC2CCCCC2C)C1=O (configuration not stated),i,-0.04
Cc1ccc(-c2noc(/C=C/c3ccccc3)n2)cc1,i,-0.01
Cn1c(=O)c2c(nc(Oc3ccc4c(c3)OCO4)n2Cc2ccc(Br)cc2)n(C)c1=O,i,1.7
CCCCN(CC)C(=O)Cn1nc(Cc2ccncc2)c2ccccc2c1=O,i,0.12
Cc1ccc(S(=O)(=O)n2ccc(-c3ccc(OCc4c(F)cccc4Cl)cc3)n2)cc1,i,0.23
Cc1c(C(=O)OC/C(O)=C(\C#N)c2nc3ccccc3[nH]2)oc2ccc(Br)cc12,i,0.65
CN(Cc1ccccc1)C(=O)COc1cc(Cl)ccc1Cl,i,-0.99
CC(C)(C)N1C(=O)[C@H]2[C@@H](c3ccc(Br)cc3)N3C(=O)N(c4cccc(F)c4)C(=O)[C@@]3(C)[C@H]2C1=O,i,0.87
O=C(C1=C[C@@H](c2ccc(C(F)(F)F)cc2)C[C@@H](OCc2ccc(CO)cc2)O1)N1CCN(Cc2ccc3c(c2)OCO3)CC1,i,-0.02
Cc1cc(C)nc(N2CCCC(C(=O)NNC(=O)c3ccncc3)C2)n1 (configuration not stated),i,1.8
Cc1cc(NC(=O)c2c(F)c(F)c(F)c(F)c2F)no1,i,-0.31
CN1CCCC(CN2c3ccccc3Sc3ccccc32)C1 (configuration not stated),i,-0.61
Cn1c(SCc2nc(-c3ccccc3)no2)nnc1-c1cccs1,i,1.5
O=Nc1c(O)[nH]c2c(F)cccc12,i,1.5
NC(=O)C1CCN(CC(=O)Nc2cccnc2Cl)CC1,i,-1.6
CCN(CC)C(=O)C(=O)c1cn(CCOc2ccccc2)c2ccccc12,-7.3*,-0.11*
Cc1cc(=O)oc2cc(OCC(=O)Nc3ccc(CN4CCOCC4)cc3)ccc12,i,0.05
O=C(N/C=N/O)C(c1ccccc1)c1ncc(C(F)(F)F)cc1Cl (configuration not stated),i,1
CC(C)c1ccc(N(CC(=O)NCc2ccc(F)cc2)C(=O)c2csnn2)cc1,i,-0.43
CC(C)CC(COCc1ccc(Cl)cc1)N1CCN(C(=O)c2cccc(C(F)(F)F)c2)CCC1=O (configuration not stated),i,2.2
Cc1cc(=O)n(C)c(=O)n1CCCCOc1ccc([N+](=O)[O-])cc1,i,0.18
CCOc1ccc(N2CC(C(=O)NCCCN3CCOCC3)CC2=O)cc1 (configuration not stated),i,0.46
Cc1cc(N=Nc2ccccc2)c(NCC(O)C(O)C(O)CO)cc1C (configuration not stated),i,-0.45
C/C(=N\NC(=O)c1ccc(CSc2nc(C)cc(C)n2)cc1)c1ccco1,i,-0.13
Cc1ccc(C2=NN=C(NC(=O)CSc3nnc4c5ccccc5n(C)c4n3)SC2)cc1,i,-0.31
CCOc1ccc(S(=O)(=O)N(CC)CC)cc1NC(=O)CSCc1c(C)noc1C,i,1.2
C/C(CC(=O)Nc1ccc(Br)cc1)=N\NC(=O)c1cccc(O)c1,i,1.5
O=C(NCCCn1ccnc1)c1cccc(S(=O)(=O)NCc2ccccc2)c1,i,0.79
CCCCC(CCC(=O)Nc1ccc(C(=O)OCC)cc1)C(=O)O (configuration not stated),i,-3.6
CC(NC(=O)/C(C#N)=C/c1ccc(Cl)c([N+](=O)[O-])c1)c1ccccc1 (configuration not stated),-11*,-1.2*
O=C(Nc1ccsc1C(=O)NC1CC1)c1ccccc1,i,-1.1
COC(=O)[C@@H]1[C@H]2C[C@H]3c4[nH]c5ccccc5c4CCN3C[C@@H]2CC[C@@H]1O,i,0.65
Cc1ccc2nc3c(cc2c1)c(NC(=O)c1ccccn1)nn3CC(C)C,-7.5*,0.06*
Cc1cccc(NC(=O)CNC(=O)CNC(=O)Cc2ccccc2)c1,i,-0.83
O=C(CN(c1ccc(F)cc1)S(=O)(=O)c1ccc2c(c1)OCCO2)NCc1ccccc1,i,1.5
CCc1nnc(SCC(=O)Nc2ccc(N3CCN(S(C)(=O)=O)CC3)cc2)o1,i,-1.2
O=C(c1ccsc1)N1CCCC(Nc2cccc(F)c2)C1 (configuration not stated),i,-0.59
COc1ccc(CSc2nnnn2-c2ccccc2)cc1,i,-1.8
Cc1ccc(C)c(NC(=O)/C(C#N)=C/c2cn(CC(=O)NCc3ccco3)c3ccccc23)c1,i,0.98
NC(=O)SCC(=O)Nc1ccccc1C(=O)O,i,0.28
CC12CCC(c3c(C(=O)Nc4nccs4)nn(-c4ccccc4)c31)C2(C)C (configuration not stated),-8.3*,-1.5*
Cc1nc(C(=O)NNC(=O)c2ccc(Cl)cc2)c(C(F)(F)F)o1,i,-0.61
COc1ccc(/C=C2\N=C3CCCCCN3C2=O)cc1OC,i,0.21
CC(C)Cc1cc(C(C)(C)C)ccc1OC(=S)N(C)C,-7.8*,-2.6*
Nc1ccc2nc(SCC(=O)N3CCOCC3)sc2c1,i,-0.01

Continuation:
structure,KCNQ2 inh,KCNQ2 inh baseline
O=C(CC1C(=O)NCCN1C(=O)Nc1ccc(F)cc1F)Nc1cc(Cl)ccc1Cl (configuration not stated),i,-0.46
O=C1CCCc2c1cc(C(=O)NCc1ccco1)c(=O)n2-c1ccc(Cl)cc1,i,-0.59
NC1=NC[C@@H](Cc2ccc(O)cc2)N1CCCCC1CCCCC1,i,0.1
CCCCn1c(=O)[nH]c2nc3cc(NC(C)=O)ccc3nc2c1=O,i,3.4
OCCN1CCN(CC/C=C2/c3ccccc3Sc3ccc(C(F)(F)F)cc32)CC1,i,-2.8
COc1ccc(N2CCN(C(=O)c3ccc(C(C)(C)C)cc3)CC2)cc1,i,2.3
COc1cccc(C2Nc3cc(Cl)c(S(N)(=O)=O)cc3S(=O)(=O)N2)c1 (configuration not stated),i,-0.59
Cc1ccc(N=Cc2cc3c(cc2O)OC(N)=C(C#N)C3c2ccccc2)cc1 (configuration not stated),i,1.3
CCCOc1ccc(/C=C/C(=O)Nc2ccc([N+](=O)[O-])cc2C)cc1OC,i,1.6
COc1ccc(N(C(=O)c2snc(C(N)=O)c2N)C(C(=O)NC2CCCC2)c2ccco2)cc1 (configuration not stated),i,1.2
Cc1ccc(OCc2nnc(SCCN3CCOCC3)n2C)cc1,i,-0.16
CC1CN(C(=O)CCNC(=O)c2ccc(Cl)cc2)CC(C)O1 (configuration not stated),i,0.84
O=C(Nc1nccs1)C1Cc2ccccc2CN1S(=O)(=O)c1ccc(F)cc1 (configuration not stated),i,1.6
O=C(CNCc1ccc(F)cc1)Nc1ccccc1-c1ccccc1,i,1.7
COc1ccccc1NS(=O)(=O)c1ccc2c(c1)n(C)c(=O)n2C,i,1.6
CS(=O)(=O)N(CC(=O)NC1CCCCCC1)Cc1ccccc1,i,2.2
Cc1cc(=O)oc(C)c1C(=O)NCCCN1C(C)CCCC1C (configuration not stated),i,-0.03
C[C@H](NC(=O)c1ccccc1F)C(=O)N1CCC2(CC1)NCCc1[nH]cnc12,i,-0.08
COc1ccc(-c2noc(CN(C)C(=O)Nc3ccccc3)n2)cc1,i,1.4
O=C(O)/C=C/C(=O)Nc1ccccc1SC(F)(F)F,i,-0.58
Cc1cc(C)c(S(=O)(=O)NCc2ccc3c(c2)OCO3)cc1C,i,-1.6
CN(CCc1ccccn1)C1CCCN(S(=O)(=O)c2ccccc2)C1 (configuration not stated),i,-1.6
Cn1c(=O)oc2cc(S(=O)(=O)NCCC(=O)N3CCc4ccccc4C3)ccc21,i,1.1
O=C(c1ccc(Oc2ccc(C(F)(F)F)cn2)cc1)N1CCN(c2ccccc2)CC1,i,0.08
COc1ccc(CNC(=O)COC(=O)[C@H](Cc2c[nH]c3ccccc23)NC(=O)c2cccs2)cc1,i,1.4
O=C(NCCC1=CCCCC1)c1ccc([N+](=O)[O-])cc1,i,-0.75
CCNC(=S)N/N=C/c1ccc(-c2ccccc2)o1,i,3
CCCn1nc(C(=O)NNC(=O)CSCC(=O)Nc2cc(C)on2)c2ccccc2c1=O,i,-0.4
O=C(N1CCN(c2cccc(Cl)c2)CC1)C1(S(=O)(=O)c2ccc(Cl)cc2)CC1,i,0.15
Cc1nc(-c2ccc(S(=O)(=O)Nc3cc(S(=O)(=O)N(C)C)ccc3C)s2)cs1,i,-2.6
O=C(CCc1ccccc1Cl)NC1CCCN(c2ccc(C(F)(F)F)cn2)C1 (configuration not stated),i,-0.54
CCCCn1c(N)c(N(CCOC)C(=O)CCCc2nc3ccccc3c(=O)[nH]2)c(=O)[nH]c1=O,i,0.03
O=C(CSc1ccccc1Cl)c1ccco1,i,1.8
CC(OC(=O)C1CCCCC1)C(=O)Nc1cccc(Cl)c1 (configuration not stated),i,-0.61
O=C(c1ccco1)N1CCC(n2nnc3ccccc32)CC1,i,0.42
CC1=C(C(=O)OCC(C)C)C(c2cc3c(cc2Br)OCO3)NC(=O)N1C (configuration not stated),i,2.2
Cc1nn(Cc2ccccc2)c2c1C(c1ccc(Cl)cc1)C(C#N)=C(N)O2 (configuration not stated),i,0.27
O=C(Nc1nc(-c2cc(F)ccc2F)cs1)C1=NN(c2ccccc2)C(=O)CC1,i,0.31

Given with values ahead of the structure: part of the list above.
KCNQ2 inh | KCNQ2 inh baseline | molecule
i | -0.75 | O=C(NCCC1=CCCCC1)c1ccc([N+](=O)[O-])cc1
i | 3 | CCNC(=S)N/N=C/c1ccc(-c2ccccc2)o1
i | -0.4 | CCCn1nc(C(=O)NNC(=O)CSCC(=O)Nc2cc(C)on2)c2ccccc2c1=O
